High-throughput results deposited in PubChem by National Center for Advancing Translational Sciences (NCATS).
Rango release inh: inhibition of RanGTP-driven Rango-importin beta dissociation; O95149+P62826; Biochemical FRET Rango-importin beta, RanGTP-induced dissociation; Potency, µM (titrated, usually from 46.1 µM), for the others: at the highest dose activity change, negative = inhibition; 340,000 tested, 0.071% active; active means falling FRET ratio curve, often poorly fitted, with flat reads before Ran was added; inconclusive means other falling curves, or compound fluorescence or quenching; inactive means flat or rising ratio curve;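 also: potency is read from the fitted curve at half-maximal effect; % of control where 0% means no effect; nearly all actives have a fitted effect of over 45% in size; -100% = wells without RanGTP and RCC1; the record marks most hits as doubtful in a second field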
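Two FRET readings bracket the reaction: one 5 min after compound meets Rango–importin beta, another 45 min after RanGTP-RCC1 (0.6 uM Ran, 0.2 uM RCC1, 2 mM GTP) is added. Only the second defines inhibition.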
GLA inh pH 4.5: alpha-galactosidase A (human) inhibition, pH 4.5. P06280. purified enzyme, 4-MU-alpha-Gal fluorescence, pH 4.5. activity change, negative = inhibition, % at 105 µM. 230,000 tested, under 10 active. AID 1467; inconclusive = small, poorly fitted or top-dose-only inhibition, or a rising curve; inactive = flat fitted curve, though single readings scatter; no compound was filed as active;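 also: 0% = full activity with enzyme and -100% = basal without enzyme; dose as in the result columns while the protocol names 77 µM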
Target sequence (P06280 whole entry, looked up): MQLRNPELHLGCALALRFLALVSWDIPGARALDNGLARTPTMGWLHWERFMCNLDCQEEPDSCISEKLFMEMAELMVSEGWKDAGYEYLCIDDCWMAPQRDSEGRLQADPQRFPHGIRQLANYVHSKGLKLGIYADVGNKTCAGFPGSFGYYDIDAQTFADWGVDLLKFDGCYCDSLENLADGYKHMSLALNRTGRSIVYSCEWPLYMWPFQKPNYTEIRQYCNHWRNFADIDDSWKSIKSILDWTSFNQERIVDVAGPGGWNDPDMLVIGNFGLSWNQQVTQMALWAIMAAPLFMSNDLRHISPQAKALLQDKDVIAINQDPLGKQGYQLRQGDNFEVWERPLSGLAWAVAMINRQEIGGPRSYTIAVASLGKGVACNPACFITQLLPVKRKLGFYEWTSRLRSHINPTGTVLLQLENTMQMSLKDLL
Rango-impB inh: inhibitors of Rango-importin beta complex formation; Q14974; Rango CFP/YFP FRET sensor + importin beta, 45 min; Potency, µM (highest dose often 92.2 µM), without a hit: at the highest dose inhibition of complex formation; 340,000 tested, 0.031% active; active = rising FRET ratio curve, often small or poorly fitted; inconclusive = mostly compound fluorescence or quenching in the first reads; inactive = flat curves in all reads;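 also: potency is read from the fitted curve at half-maximal effect; 0% = DMSO wells and 100% = buffer wells lacking importin beta; nearly all actives have a fitted effect of over 15% in size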
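Inhibition scored from the CFP 486 nm/YFP 530 nm FRET ratio 45 min after adding 0.125 microM importin beta to 50 nM Rango biosensor preincubated 5 min with compound (room temperature, PBS with DTT, Tween-20, BSA). No-importin wells as positive control.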
miR-21 reporter: miR-21 reporter, rising signal. HeLa miR-21 FLuc reporter, luciferase, 48 h. Potency, µM (series often up to 38.3 µM), for inactives: at the highest dose reporter change, positive = more light. 340,000 tested, under 10 active. AID 2288; active = well fitted rising curve with a large enough effect; inconclusive = small, poorly fitted or top-dose-only effect; inactive = no such curve, though single readings can be large or run the other way;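 also: % of control where 0% means no effect; miR-21 action dims this reporter so a rising signal means less miR-21 action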
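HeLa cells endogenously expressing miR-21, stably carrying CMV-driven firefly luciferase with a downstream miR-21 binding site, 2000 cells/well. Titrations up to approximately 40 uM, 48 hours; luciferase luminescence read.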
* = called active by the depositor; ? = inconclusive; / = no result given.

nr	canonical_smiles	Rango release inh	GLA inh pH 4.5	Rango-impB inh	miR-21 reporter
1	CCCCCCOC(=O)c1ccccc1NC(=O)/C=C/C(=O)O	21%	9	-1.0%	-16%
2	Cc1cc(NS(=O)(=O)c2ccc(NC(=O)c3cnc4scc(C)n4c3=O)cc2)nc(C)n1	-9%	8	3.2%	-29%
3	COc1ccccc1N1CCN(c2ccc(Cl)nn2)CC1	1%	4	0.3%	3%
4	CN(C)C(=O)c1c(NC(=O)c2ccco2)sc2c1CCCCC2	24%	5	11%	-20%
5	COc1ccc(CSc2ncn[nH]2)cc1[N+](=O)[O-]	3%	-5	3.3%	-4%
6	Cc1ccc(S(=O)(=O)/N=C(/c2ccccc2)N(C)C)c(C)c1	13%	/	0.5%	-1%
7	Clc1ccc(Oc2nc(N3CCOCC3)nc(N3CCOCC3)n2)cc1	19%	2	-0.5%	-2%
8	O=C(COc1ccc2ccccc2c1)NNC(=O)C(=O)Nc1ccccc1	10%	/	-2.9%	4%
9	CC(Sc1nc2ccccc2s1)C(=O)Nc1nnc(C(C)C)s1 (centres undefined)	-2%	0	-1.4%	-1%
10	CC(C)(C)OC(=O)C[C@H]1C/C=C\C[C@@H](CC(=O)N(CCO)Cc2ccccc2)C(=O)N[C@@H](Cc2ccccc2)COC1=O	-10%	/	3.4%	/
11	O=C(NCc1nnc2c(C(F)(F)F)cc(Cl)cn12)c1ccc2c(c1)OCO2	-2%	/	-1.8%	-7%
12	Nc1nccnc1C(=O)OCC(=O)NCCc1ccc(Cl)cc1	?	/	?	/
13	CCN(C(=O)COC(=O)c1c(-c2ccccc2)noc1C)C1CCS(=O)(=O)C1 (centres undefined)	-23%	-8	-3.8%	-7%
14	O=C(Nc1ccccc1)OCCOc1ccccc1Br	5%	/	3.4%	-53%
15	CN1CCN(/N=C/c2c3ccccc3c(Cl)c3ccccc23)CC1	-4%	3	6.8%	-10%
16	Cc1ccn2cc(-c3nonc3C)cc2c1	-3%	-2	?	-1%
17	COc1ccc2cc(C(c3nnnn3Cc3ccccc3)N3CCCCCC3)c(=O)[nH]c2c1 (centres undefined)	?	7	?	-25%
18	O=C(CSc1nn(-c2ccccc2)c(=S)s1)NC1CCS(=O)(=O)C1 (centres undefined)	-2%	-13	4.8%	-2%
19	CC(=O)N1CCN(Cc2nc3scc(-c4ccccc4)c3c(=O)[nH]2)CC1	-3%	-6	1.0%	7%
20	COc1ccc(N(CC(=O)NC(C)(C)C)C(=O)CCC(=O)Nc2nccs2)c(OC)c1	7%	/	-2.0%	-1%
21	COc1ccc(N(C(=O)c2ccncc2)S(=O)(=O)c2ccc(Cl)cc2)cc1	-25%	/	4.0%	3%
22	Cc1cc(C)cc(NC(=O)COc2coc(CN3CCc4ccccc43)cc2=O)c1	-1%	/	2.3%	/
23	CCOc1ccccc1/C=N/NC(=O)CNC(=O)c1cccs1	-3%	0	3.6%	-2%
24	Cc1ccc2cc(C(c3nnnn3C3CCCC3)N3CCN(c4ccc(F)cc4)CC3)c(=O)[nH]c2c1 (centres undefined)	12%	-8	0.4%	-2%
25	CC12CC(NC(=O)N1c1cccc(C(=O)N3CCCCC3)c1)c1ccccc1O2 (centres undefined)	4%	/	-0.3%	0%
26	C#Cc1ccc2c(c1)COc1c3ccccc3nn1-2	15%	/	-2.9%	/
27	COc1ccc(C(=O)CC(=O)c2ccccc2O)cc1	15%	/	5.7%	-24%
28	O=C(O)c1cc([N+](=O)[O-])ccc1Nc1ccccc1	-19%	-9	?	-6%
29	Cc1nn(CC(=O)NCCCN2CCCCC2C)c(=O)c2cccn12 (centres undefined)	-5%	/	2.1%	0%
30	COCCC(=O)N1CCC(Oc2ccc(C(=O)NCCSC)cc2)CC1	-1%	/	-0.4%	2%

Compounds listed so far containing a tert-butyl group, in the order listed:
nr	canonical_smiles	Rango release inh	GLA inh pH 4.5	Rango-impB inh	miR-21 reporter
10	CC(C)(C)OC(=O)C[C@H]1C/C=C\C[C@@H](CC(=O)N(CCO)Cc2ccccc2)C(=O)N[C@@H](Cc2ccccc2)COC1=O	-10%	/	3.4%	/
20	COc1ccc(N(CC(=O)NC(C)(C)C)C(=O)CCC(=O)Nc2nccs2)c(OC)c1	7%	/	-2.0%	-1%

(more compounds)
nr	canonical_smiles	Rango release inh	GLA inh pH 4.5	Rango-impB inh	miR-21 reporter
31	CCC(Cc1ccccc1)NC(=O)C1CCN(c2nn3c(=O)cc(C)nc3s2)CC1 (centres undefined)	29%	/	2.9%	-2%
32	COc1ccc(Cl)cc1S(=O)(=O)N1CCC(C(=O)NC2CCCC2)CC1	-9%	/	-2.9%	-1%
33	Cc1nc2nc[nH]c2cc1Br	2%	9	4.0%	2%
34	CC(CNC(=O)c1ccc(NC2=NC3CS(=O)(=O)CC3S2)cc1)c1ccccc1 (centres undefined)	-11%	/	-5.1%	0%
35	C[C@@H]1CN([C@@H](C)CO)C(=O)c2cccc(NS(C)(=O)=O)c2O[C@H]1CN(C)CC1CCCCC1	0%	/	1.0%	/
36	Cc1cc(-n2c(C)cc(C(=O)CSc3[nH]c(=O)cc(C(F)(F)F)c3C#N)c2C)no1	-13%	/	-4.9%	/
37	CCOc1ccc(S(=O)(=O)N2CCCC(C(=O)NCc3ccccn3)C2)cc1 (centres undefined)	-13%	/	3.6%	-1%
38	Cc1ccc(NS(=O)(=O)c2ccc(OCC(=O)Nc3cccc([N+](=O)[O-])c3)c(C)c2)cc1	-16%	1	?	20%
39	COc1ccccc1-n1c(SCC(=O)NC(C)(C)C)nnc1-c1ccco1	7%	-3	-5.9%	-6%
40	O=C(O)CC1C(=O)NCCN1CCCc1ccccc1 (centres undefined)	-1%	0	-2.3%	-4%
41	NC(=O)C1CCN(c2oc(/C=C/c3ccccc3)nc2S(=O)(=O)c2ccccc2)CC1	9%	/	-3.7%	1%
42	CCCn1c(=O)c2ccccc2n2c(=S)[nH]nc12	-1%	/	-3.8%	1%
43	CN(C(=O)COC(=O)C(C)(C)Oc1ccc(Cl)cc1)c1c(N)n(Cc2ccccc2)c(=O)[nH]c1=O	-1%	/	0.6%	/
44	Cc1cc(Br)ccc1OCC(=O)NNC(=O)C(=O)Nc1ccccc1	5%	2	-0.4%	-16%
45	CCO[C@H]1OC(C(=O)Nc2ccccc2)=C[C@@H](c2ccc(C(F)(F)F)cc2)[C@@H]1CCCO	17%	-22	-0.7%	17%

3 records drawn at random from those above, as already listed:
nr	canonical_smiles	Rango release inh	GLA inh pH 4.5	Rango-impB inh	miR-21 reporter
30	COCCC(=O)N1CCC(Oc2ccc(C(=O)NCCSC)cc2)CC1	-1%	/	-0.4%	2%
29	Cc1nn(CC(=O)NCCCN2CCCCC2C)c(=O)c2cccn12 (centres undefined)	-5%	/	2.1%	0%
27	COc1ccc(C(=O)CC(=O)c2ccccc2O)cc1	15%	/	5.7%	-24%

The listing continues.
nr	canonical_smiles	Rango release inh	GLA inh pH 4.5	Rango-impB inh	miR-21 reporter
46	O=C1CCC([N+](=O)[O-])C(c2ccc3c(c2)OCO3)N1 (centres undefined)	4%	5	-0.4%	-2%
47	Cc1cc(C(=O)NN=Cc2ccc(OC(=O)c3ccco3)cc2)c(C)o1	7%	/	-0.5%	/
48	Cc1ccccc1OCC(=O)N/N=C/c1ccc([N+](=O)[O-])o1	16µM*	-4	?	?
49	COc1ccc(C(CNC(=O)CN2C(=O)NC(C)(c3ccc4ccccc4c3)C2=O)N2CCCC2)cc1 (centres undefined)	?	/	-1.3%	/
50	CS(=O)(=O)N(CC(=O)NCCSC1CCCCC1)c1cccc(F)c1	22%	-6	4.1%	-9%
51	COc1ccc(/C=N/NC(N)=S)cc1OC(=O)c1cccc2ccccc12	-6%	0	1.1%	11%
52	Nc1ncnc2c1ncn2[C@@H]1O[C@H](CNCc2ccccc2OCC(=O)N2CCCCC2)[C@@H](O)[C@H]1O	0%	/	5.6%	/
53	Cc1nn(C)c(C)c1NC(=O)CCSc1nc(-c2ccco2)cc(C(F)(F)F)n1	-5%	1	-0.3%	-2%
54	CC1=CC=CN2C1=NC(=O)CC2(C)C(=O)N(CC(=O)NC1CCCC1)c1cc(C)cc(C)c1 (centres undefined)	0%	16	3.9%	2%
55	O=C(O)c1ccc2c(c1)C(=O)N(CCCCCCCN1C(=O)c3ccc(C(=O)O)cc3C1=O)C2=O	0%	/	-1.3%	-1%
56	CCN1CCN(c2ccc(N3CCN(C(=O)c4ccc(Br)o4)CC3)nn2)CC1	1%	/	0.3%	/
57	COc1ccccc1-n1c(CNC(=O)c2cccs2)n[nH]c1=S	-7%	0	-2.3%	0%
58	CCCc1cc(=O)[nH]c(SCC(=O)CSc2nc(CCC)cc(=O)[nH]2)n1	-1%	-12	-0.5%	-4%
59	CC(=O)Nc1ccc(SCC(=O)N(CCC#N)c2cc(C)cc(C)c2)cc1	1%	-20	0.5%	-3%
60	CCN(CC)CCn1c2c(c(SCC(=O)Nc3ccccc3Cl)nc1=O)CCC2	4%	/	3.2%	/
61	C=CCNc1nnc(-c2ccncc2)s1	7%	2	0.1%	-11%
62	CCCC(C(=O)NC1CCCC1)N(C(=O)Cn1nnc(-c2ccc(C)o2)n1)C1CCCC1 (centres undefined)	2%	0	0.6%	-7%
63	CCc1ccc(OCC(=O)NC(NC(=S)Nc2ccccc2C)C(Cl)(Cl)Cl)cc1 (centres undefined)	-5%	5	1.5%	21%
64	CCOC(=O)C(=Cc1ccc2c(c1)OCO2)c1ccccc1	2%	/	4.6%	/
65	CCCCNCCOCCOc1ccccc1-c1ccccc1	-14%	-11	6.8%	0%
66	C=CCNC(=S)NNC(=O)c1ccc(=O)n(Cc2ccc(Cl)cc2Cl)c1	-1%	7	5.7%	5%
67	O=C(Nc1ccccc1)Nc1nc(-c2ccc(Cl)cc2)cs1	17%	3	-0.8%	-15%
68	COc1ccc(NC(=O)COc2ccc3c(C)cc(=O)oc3c2)cc1S(=O)(=O)N1CCCCC1	14%	/	1.8%	/
69	CC(NC(=O)c1ccccc1F)c1nnc(SCC(=O)N2CCN(c3ccccc3)CC2)n1C (centres undefined)	-11%	0	0.5%	-1%
70	CC1CCCCC1NC(=O)COC(=O)c1ccc2c(c1Cl)C(=O)c1ccccc1C2=O (centres undefined)	-3%	4	-2.6%	-8%
71	CCN(c1cccc(C)c1)S(=O)(=O)c1cccc(C(=O)O)c1	0%	5	-2.5%	-5%
72	O=C(c1cccc(S(=O)(=O)N2CCN(c3ccccc3)CC2)c1)N1CCCC(C(F)(F)F)C1 (centres undefined)	-24%	/	-2.6%	/
73	COc1ccc(OC)c(NC(=S)N(CCc2c(C)[nH]c3ccc(C)cc23)Cc2cccs2)c1	?	-9	2.3%	3%
74	COC(=O)C1CCN(C(=O)COc2ccc(S(=O)(=O)N3CCOCC3)cc2Cl)CC1	41%	/	0.7%	/
75	COc1ccc(CNc2nc(NCc3ccc(OC)cc3)c3ncn(C4CCCC4)c3n2)cc1	0%	/	-2.5%	/
76	O=C(N/C(=C/C=C/c1ccccc1)C(=O)N1CCCCC1)c1ccc([N+](=O)[O-])cc1	6%	-4	4.0%	2%
77	COc1ccc(-n2c(=O)c3c4c(sc3n(CC(=O)NC3CCCC3)c2=O)CCCC4)c(OC)c1	8%	-2	-0.3%	-1%
78	CCN1CCN(c2ccc(S(=O)(=O)N3CCCCC3)cc2NC(=O)c2ccc(C)c(C)c2)CC1	-14%	/	?	/
79	Cc1cc(C)c2c(N)c(C(=O)c3ccccc3)oc2n1	?	-6	-0.7%	0%
80	Cc1ccc(OCC(=O)NNC(=O)CSc2ncc(C#N)c(N)n2)cc1	-25%	-16	?	-7%
81	CCC/C(O)=C1\C(=O)CC(c2ccccc2)CC1=NC (centres undefined)	-7%	4	1.7%	-8%
82	CCc1noc(C)c1C(=O)N1CCN(c2cccc(C)c2C)CC1	15%	/	-0.5%	/

A portion of the library (hit frequency here may not be typical).
